Screening results: PubChem BioAssay, several laboratories
Arbovirus inh: arbovirus infection inhibition | arbovirus infection cell-based antiviral screen | inhibition, % at 10 µM | 0.37% of 200,000 active;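 active = inhibition from about 30%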;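 also: bluetongue infection of BSR cells; cell survival read as ATP light after 72 h; 0% = infected wells without compound and 100% = uninfected wells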
Mtb H37Rv: M. tuberculosis H37Rv growth inhibitors, H37Rv strain (AID 1626); one-dose inhibition, % at 10 µM; IC50 in µM for titrated hits; M. tuberculosis H37Rv growth inhibition; higher % means a stronger effect; 0.95% of 220,000 active;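 active = confirmed in a dose series; inconclusive = inhibition above 80% but not taken into the dose series; inactive = below 80% or under 30% at every dose of the series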;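 also: bacteria incubated seven days before Alamar blue readout; 0% = bacteria only wells and 100% = bacteria with antibiotic wells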
Mtb betalactam: beta-lactam sensitization of Mtb H37Rv; M. tuberculosis H37Rv growth with meropenem, percent inhibition; hits of this screen are not shown here; inhibition, % at 25 µM; 0.27% of 330,000 active; AID 434955;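 active = about 74% or more and at least 40 points above the plate without the antibiotic, then above 30% in a dose series; inconclusive = first-round hits that could not be retested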;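 also: growth measured after seven days incubation then overnight dye step; 0% = bacteria only wells and 100% = bacteria with antibiotic; twin plates without the antibiotic show which effects depend on it; some results filed as inactive read as strong as hits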
RecA intein inh: blocks M. tuberculosis RecA intein splicing; P9WHJ3; cell-free RecA intein splicing, fluorescence; inhibition, %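 (about 9 µM by stock and volumes)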; 0.75% of 290,000 active; AID 2221; in the data active = inhibition above about 30%; inconclusive = no clear call, values can overlap the other calls;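 also: 0% = vehicle wells and 100% = reference inhibitor control wells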
Target sequence (P9WHJ3 whole entry, looked up): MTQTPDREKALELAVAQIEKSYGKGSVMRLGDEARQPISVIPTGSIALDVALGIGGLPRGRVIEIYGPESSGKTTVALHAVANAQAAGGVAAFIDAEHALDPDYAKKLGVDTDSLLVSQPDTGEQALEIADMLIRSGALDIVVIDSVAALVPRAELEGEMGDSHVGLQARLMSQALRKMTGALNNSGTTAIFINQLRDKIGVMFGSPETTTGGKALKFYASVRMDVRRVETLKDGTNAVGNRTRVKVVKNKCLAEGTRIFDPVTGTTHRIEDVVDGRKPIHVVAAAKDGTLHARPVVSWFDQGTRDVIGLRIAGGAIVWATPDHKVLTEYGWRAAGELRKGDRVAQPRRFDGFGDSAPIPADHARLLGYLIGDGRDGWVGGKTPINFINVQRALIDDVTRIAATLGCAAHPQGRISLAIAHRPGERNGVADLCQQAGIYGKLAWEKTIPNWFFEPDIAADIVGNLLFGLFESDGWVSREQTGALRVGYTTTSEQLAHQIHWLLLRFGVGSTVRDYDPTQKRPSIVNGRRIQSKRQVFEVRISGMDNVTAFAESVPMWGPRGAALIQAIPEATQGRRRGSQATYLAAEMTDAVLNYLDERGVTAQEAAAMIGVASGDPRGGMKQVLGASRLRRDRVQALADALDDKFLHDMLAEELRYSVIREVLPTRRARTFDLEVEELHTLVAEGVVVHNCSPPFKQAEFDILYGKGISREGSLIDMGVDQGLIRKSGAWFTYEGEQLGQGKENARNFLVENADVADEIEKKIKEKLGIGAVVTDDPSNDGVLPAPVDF
YopH PTP inh: blocks Yersinia enterocolitica YopH tyrosine phosphatase; fluorescence Ex485/Em525; AID 898; 0.16% of 140,000 active; inhibition, %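 (about 10 µM by stock and volumes)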;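 active = inhibition of 50% or more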;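 also: controls were vehicle for no effect and minimum signal wells for full effect; inactives centre near -20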
Arbovirus inh repeat: recorded beside Arbovirus inh, whose call it bears; inhibition, %; measured here: 10K subset replicate screen; many hits read low in the repeat;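 first of two repeat runs on a subset; 0% = infected and 100% = uninfected wells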
An asterisk follows results filed as active; ? = inconclusive; / = not tested or not shown. The list is partial; count on the stated rates, not on these rows.

Start of the listing, in advance, 7 compounds:
SMILES	Arbovirus inh	Mtb H37Rv	Mtb betalactam	RecA intein inh	YopH PTP inh	others
O=C(c1ccc(OC2CCN(Cc3ccccn3)CC2)cc1)N1CCCCO1	1	2%	1	-3.3	/
CC(=O)c1cc(-c2ccccc2)n(CC(=O)N2CCCCC2)c1C	3	-7%	-2	0.7	-16
O=C(CN1CC(=O)Nc2ccccc21)Nc1ccc(F)c(F)c1	1	1%	-2	0.5	/
O=C(NN1CCOCC1)c1cc(-c2ccncc2)nc2ccccc12	1	7%	6	-0.3	/
CCOC(=O)N1CCN(C2CC(=O)N(c3ccccc3)C2=O)CC1 (configuration not stated)	7	-11%	0	-1.9	-48	Arbovirus inh repeat=2
O=C(NC1CCCCC1)c1cccc(S(=O)(=O)N2CCCCC2)c1	/	/	-7	-1.5	/
Cc1ccc(N(C(=O)Cc2cccs2)C(C(=O)NCC2CCCO2)c2ccncc2)cc1 (configuration not stated)	3	-6%	-1	-0.2	/

The whole of this part, previewed entries included:
SMILES	Arbovirus inh	Mtb H37Rv	Mtb betalactam	RecA intein inh	YopH PTP inh	others
O=C(c1ccc(OC2CCN(Cc3ccccn3)CC2)cc1)N1CCCCO1	1	2%	1	-3.3	/
CC(=O)c1cc(-c2ccccc2)n(CC(=O)N2CCCCC2)c1C	3	-7%	-2	0.7	-16
O=C(CN1CC(=O)Nc2ccccc21)Nc1ccc(F)c(F)c1	1	1%	-2	0.5	/
O=C(NN1CCOCC1)c1cc(-c2ccncc2)nc2ccccc12	1	7%	6	-0.3	/
CCOC(=O)N1CCN(C2CC(=O)N(c3ccccc3)C2=O)CC1 (configuration not stated)	7	-11%	0	-1.9	-48	Arbovirus inh repeat=2
O=C(NC1CCCCC1)c1cccc(S(=O)(=O)N2CCCCC2)c1	/	/	-7	-1.5	/
Cc1ccc(N(C(=O)Cc2cccs2)C(C(=O)NCC2CCCO2)c2ccncc2)cc1 (configuration not stated)	3	-6%	-1	-0.2	/
CN1CCN(c2ccc(C(CC(N)=O)NC(=O)Cc3cccc4ccccc34)cc2[N+](=O)[O-])CC1 (configuration not stated)	/	/	-6	1.1	/
O=C(NC(=S)Nc1ccc2c(c1)OCCO2)c1ccccc1	3	0%	-6	5.5	-17
Cc1cccc(C)c1NC(=O)CCCSc1nnc(-c2ccco2)o1	6	-10%	3	3.1	-29
CN(C(=O)CSc1nc2ccccc2s1)c1c(N)n(Cc2ccccc2)c(=O)[nH]c1=O	16	0%	-2	-1.5	/
O=C(Cc1cccs1)N1CCN(c2nc(-c3ccc(Cl)cc3)cs2)CC1	14	8%	82	15	-22
COc1ccc(-c2nnc(-c3ccc(OCC(C)C)cc3)o2)cc1	5	-3%	2	5.1	-3
CC1(c2ccccc2)NC(=O)N(CC#N)C1=O (configuration not stated)	7	/	-3	-2.3	/
Cc1ccc(CNC(=O)CN(c2cccc([N+](=O)[O-])c2)S(C)(=O)=O)cc1	1	-6%	-4	-3.9	/
Cc1cc(C)cc(N(CCC#N)C(=O)COC(=O)C2=COCCO2)c1	/	/	6	-1.7	/
Cc1ccc(NC(=O)C(CC(C)C)NC(=O)C2CCC(C)CC2)nc1 (configuration not stated)	0	-2%	4	-0.4	-7
Cc1cc(C)n(CCCNC(=O)c2ccc3c(c2)NC(=O)CS3)n1	4	6%	-1	-1.8	-9
CCOC(=O)N1CCC(NC(=O)CCc2c(C)nc3ncnn3c2C)CC1	3	1%	-19	-0.3	-32
Cc1cccc(-c2oc3ccccc3c2-c2ccc3c(c2)OCO3)c1	/	/	2	-3.4	/
COc1cc(CC(=O)Nc2ccccc2N2CCOCC2)cc(OC)c1OC	7	-7%	1	-0.9	/
CC(NC(=O)Cc1cccs1)c1ccccc1 (configuration not stated)	-7	1%	6	0.2	/
C=CCOc1cccc(C2/C(=C(/O)c3ccc4c(c3)CC(C)O4)C(=O)C(=O)N2CCN2CCOCC2)c1 (configuration not stated)	/	/	1	-1.9	/
Cc1ccc(NS(=O)(=O)c2ccc(OCC(=O)NCc3ccncc3)cc2)cc1	1	10%	0	1.3	-24
CC(C)CC(NC(=O)c1ccccc1NC(=O)c1ccccc1)C(=O)O (configuration not stated)	1	6%	-7	1.6	/
COc1ccc(N2C(=O)CC(n3c(CCCCO)nc4ccccc43)C2=O)cc1 (configuration not stated)	9	-2%	-11	-0.1	-12
O=C(NCCc1ccccc1)C(=O)NCC1OCCN1S(=O)(=O)c1cc(F)ccc1F (configuration not stated)	/	/	-4	-4.4	/
O=C1CSC(c2ccc(F)cc2)N1c1c(F)cccc1F (configuration not stated)	/	/	0	-1.7	/
CCC1(C(=O)O)NC(c2cc(OC)ccc2O)C2C(=O)N(Cc3ccccc3)C(=O)C21 (configuration not stated)	0	-9%	2	/	-6	Arbovirus inh repeat=2
O=C(O)c1ccccc1SCc1nc2ccccn2c1Br	5	-5%	-8	-5.7	/
COC(=O)C1CCN(c2cc(=O)n(-c3ccccc3Cl)c(=O)[nH]2)CC1	7	-4%	-13	/	-43
O=C(O)Cc1c(C(=O)O)nnn1-c1ccc(Cl)cc1Cl	17	3%	10	-0.1	/
COc1ccc([N+](=O)[O-])cc1NC(=O)C(C)OC(=O)c1ccccc1C(=O)c1ccc(Cl)cc1 (configuration not stated)	3	13%	-2	5.6	-15
c1ccc(-n2ncc3c(N4CCCC4)ncnc32)cc1	-3	-5%	-11	-0.2	-32
COc1cccc(NC(=O)C2CCCN2S(=O)(=O)c2ccc3c(c2)n(C)c(=O)c(=O)n3C)c1 (configuration not stated)	/	/	-1	0.2	/
Cc1ccc(C)c(NC(=O)C2CCCN(c3cnccn3)C2)c1 (configuration not stated)	/	/	-4	-1.0	/
Oc1c(Cl)cc(Cl)cc1CNc1nccs1	/	/	-1	2.1	/
Cc1c(C#N)c(=O)c(-[n+]2ccccc2)c([S-])n1-c1ccc(Cl)cc1	/	3%	1	-0.4	/
Cc1c(C(=O)NC2CCN(Cc3ccccc3)C2)oc2ccc(Br)cc12 (configuration not stated)	/	/	57	-73	/
N#C/C(=C\c1cc2ccccc2nc1N1CCOCC1)C(=O)Nc1ccc(N2CCOCC2)cc1	5	75%	3	0.6	24
O=C(CN1C(=O)C(c2ccc(F)cc2)=NC12CCCC2)Nc1ccc(F)cc1	21	4%	5	0.7	/
COC(=O)C(O)(c1ccc(NC(=O)c2cccs2)c(C)c1)C(F)(F)F (configuration not stated)	/	-4%	6	-0.3	/
COc1ccc(C(=O)/C=C/c2ccccc2OC)c(OC(=O)c2ccc([N+](=O)[O-])cc2)c1	/	11%	67	2.9	0
Cc1oc(-c2ccc(Cl)cc2)nc1CN1CCCC(C(=O)N2CCOCC2)C1 (configuration not stated)	/	/	-2	0.1	/
O=Cc1ccc(C(=O)OCC(=O)Nc2ccc(F)cc2F)cc1	/	/	-4	2.9	/
S=c1[nH]nc(Cc2ccccc2)n1-c1cccc2ccccc12	-1	-2%	6	/	-36
Cc1cc(C)nc(Nc2nc3ccccc3[nH]2)n1	1	7%	17	1.1	4
C=CCn1c(COc2cccc3cccnc23)nnc1SCC(=O)O	5	-4%	-5	6.5	-30
CCOC(=O)C1=C(C)NC(=O)NC1c1ccc(Br)s1 (configuration not stated)	5	-11%	0	-0.5	-18	Arbovirus inh repeat=-5
O=C(CCc1nnc(-c2ccc(-c3ccccc3)cc2)o1)N1CCCCC1	-6	6%	13	-2.6	/
CCOc1ccc(-c2nnn(CC(=O)N3CCN(c4ccc(OC)cc4)CC3)n2)cc1OCC	7	6%	-7	2.1	-36
CCC(=O)N1C(C(=O)NCc2ccc(OC)cc2)CSC1c1ccc(OC)cc1 (configuration not stated)	-8	-1%	7	1.0	-45
OCC[C@@H]1C[C@H](O)[C@@H](O)[C@@]2(Cc3ccccc3CO2)O1	/	/	-5	-1.6	/
CC1(C)Cc2c(c(N3CCOCC3)nc3sc4c(N5CCOCC5)nnnc4c23)CS1	6	/	3	-0.2	-37
CS/C(=C\[N+](=O)[O-])Nc1ccc(C)cc1	-5	/	63	25	/
CCOC(=O)c1ccc(NS(=O)(=O)c2cc(-c3nnnn3C(C)C)ccc2OC)cc1	10	1%	-3	-1.5	62*
O=C(Nc1ccc(Cl)cc1)c1cccc(NC2=NC3CS(=O)(=O)CC3S2)c1 (configuration not stated)	/	/	-2	-5.4	/
CN(C)C(CNS(=O)(=O)c1ccc2ccccc2c1)c1ccccc1 (configuration not stated)	/	/	6	-1.0	/
Cc1c(NC(=O)C(C)OC(=O)CCOc2ccccc2)c(=O)n(-c2ccccc2)n1C (configuration not stated)	/	/	2	-0.4	/
O=C(Nc1nc(N2C(=O)c3ccccc3C2=O)n(-c2ccccc2)n1)c1ccccc1	7	-4%	-5	1.3	-8

(next part)
SMILES	Arbovirus inh	Mtb H37Rv	Mtb betalactam	RecA intein inh	YopH PTP inh	others
CN(C)CCNC(=O)c1cc2cc(Br)ccc2oc1=O	-1	-1%	-1	1.2	-35	Arbovirus inh repeat=2
COc1ccc(Cc2nnc(NC(=O)c3ccc(OC)cc3OC)s2)cc1	/	/	45	0.3	/
CCCn1c(=O)c2ccccc2n2c(SCCOc3ccccc3F)nnc12	1	-13%	-1	4.5	16
CC(C)c1cccc(C(C)C)c1NC(=O)COC(=O)C1=COCCO1	0	-1%	0	-0.5	/
O=[N+]([O-])c1ccccc1S(=O)(=O)Nc1ccc(-c2ccc3nncn3n2)cc1	/	/	-21	-1.8	/
COc1ccccc1Nc1nc(NCCO)c2ccccc2n1	0	0%	/	-7.1	-33
CCCOc1ccc2c3c(c(=O)oc2c1OCCC)CCC3	-24	11%	79	6.9	-54
O=C1CC(Cc2ccccc2)C(=O)N1Cc1ccco1 (configuration not stated)	-1	10%	-1	4.6	-43
Cc1cccc(NC2=NCCCS2)c1C	-3	2%	4	-3.2	-33
C/C(=N\OC(=O)c1c(-c2ccccc2Cl)noc1C)c1nccs1	5	0%	-4	0.9	/
CC(C)(C)NC(=O)NC(=O)C[n+]1ccc(Cc2ccc([N+](=O)[O-])cc2)cc1	/	/	-6	-4.4	/
CC1=CC(=C2C(=O)NC(=S)NC2=O)C=C(C(F)(F)F)N1CCc1ccccc1	7	-8%	1	-0.8	/
O=C(NCCNC(=O)c1ccc(Cl)cc1Cl)c1cnccn1	/	/	-7	3.9	/
CCOc1ccccc1N/C(=C(/C(Cl)=C(Cl)Cl)[N+](=O)[O-])n1cncn1	6	?	99	/	-21
Nc1cccc(-c2cn3cc(C(F)(F)F)cc(Cl)c3n2)c1	-6	-1%	3	-4.4	-21
Nc1nc(SCC(=O)Nc2ccccc2)[nH]c(=O)c1-c1ccccc1	-1	0%	-16	-3.7	-29
COc1ccc(-c2csc3nc(C(C)(C)C)oc(=O)c23)cc1OC	-1	-1%	-2	9.4	/
CCOc1ccc(NC(=O)CN(C)C(=O)c2cc(-c3ccncc3)nc3ccccc23)cc1OCC	/	/	-12	0.6	/
COc1ccc2nc(SCC(=O)N3CCN(c4ccc(F)cc4)CC3)c(C#N)cc2c1	-4	8%	93	1.0	-30
COC(=O)Nc1ccc(S(=O)(=O)N2CCC(Cc3ccccc3)CC2)cc1	-33	-3%	?	-0.8	-17
CC(=O)Nc1cccc(C(=O)OCC(=O)NNC(=O)c2cccs2)c1	/	/	0	-1.6	/
COc1cccc(-c2nc(-c3ccccn3)no2)c1	-2	2%	-1	-1.5	-135
Cc1cccc(C)c1NC(=O)CSC(=O)c1sc2ccccc2c1Cl	/	-8%	-2	22	/
COc1ccc(S(=O)(=O)Nc2cccc(/C=C/C(=O)O)c2)cc1	8	8%	-11	0.5	-19
CCOC(=O)C1=C(NC(=S)NC(=O)c2ccccc2)c2ccccc2CC12CCCC2	22	13%	/	5.5	-37
COc1ccc(C(C(=O)NC2CCCCC2)N2CCC3(CC2)OCCO3)cc1 (configuration not stated)	7	-6%	-2	/	9	Arbovirus inh repeat=5
COC(=O)c1sc(S(=O)(=O)N2CCC(C)CC2)c(C(=O)OC)c1C	-13	-6%	4	4.8	-26
CC(C)C(NC(=O)c1ccccc1)C(=O)NCCc1ccccc1 (configuration not stated)	-1	-9%	43	-1.8	/
O=C(Nc1ccc(-n2cccn2)cc1)C1CCCCN1Cc1cccc2c1OCO2 (configuration not stated)	/	/	98	4.7	/
O=c1[nH]c2ccccc2nc1/C=C/c1ccc(O)cc1	-25	-7%	/	-7.3	/
CC(NC(=O)c1ccc(S(=O)(=O)C(F)F)cc1)c1ccccc1 (configuration not stated)	1	-7%	-2	-0.2	/
CCOC(=O)C1CCCCN1C(=O)CCc1nnc(-c2ccc3c(c2)OCO3)o1 (configuration not stated)	/	/	-7	-9.7	/

A run of entries from further up, as a working copy:
SMILES	Arbovirus inh	Mtb H37Rv	Mtb betalactam	RecA intein inh	YopH PTP inh	others
COc1ccc(-c2csc3nc(C(C)(C)C)oc(=O)c23)cc1OC	-1	-1%	-2	9.4	/
CCOc1ccc(NC(=O)CN(C)C(=O)c2cc(-c3ccncc3)nc3ccccc23)cc1OCC	/	/	-12	0.6	/
